High-throughput results as filed in PubChem BioAssay.
MT1-MMP act inh: blockers of MT1-MMP proenzyme processing, primary screen, HT1080 RFP-PRO-GFP cells, GFP/RFP fluorescence. Matrix metalloproteinase-14 (Homo sapiens), P50281. GFP/RFP ratio fluorescence, overnight; percent of plate control window, DMSO zero. GFP/RFP ratio change, % at 20 µM. 360,000 tested, 0.061% active;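 active = GFP/RFP ratio change of at least 30% with cell ATP level not reduced by more than half and red fluorescence within 50% of control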; also: strong numbers were not always called active
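Compound: 20 µM single dose, 1% DMSO / System: HT1080 RFP-PRO-GFP cells / Controls: DMSO and RFP-L50D-GFP cell wells / Read-out basis: GFP/RFP fluorescence ratio / Schedule: overnight compound exposure at 37 °C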
eIF4H FP inh: human eIF4H binding inhibitors, primary screen, translation initiation inhibitor project, biochemical, uHTS, fluorescence polarization; Eukaryotic translation initiation factor 4H (Homo sapiens), Q15056; inhibition, % at 35 µM; eIF4H fluorescence polarization binding assay; 290,000 tested, 0.94% active;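 active = 50% or more with normal probe brightness, or confirmed in later tests; inconclusive = above 50% with abnormal brightness, or retests that disagree; inactive = below 50% or failed in later tests; about a fifth of its hits are not listed in these tables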;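 also: calls also rest on retests at 20 µM and on dose response follow-up; 0% = protein and probe with vehicle and 100% = probe without protein; strong numbers were not always called active; many hits fall short of the cut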
CSC inhib: cancer stem cell viability inhibitors, primary screen, luminescence | 300,000 tested, 1.1% active | cancer stem cell-like cells viability | inhibition, % at 7.5 µM;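 active = mean at 75% or more and at least half the replicates too; inconclusive = mean and replicates disagree; tested in HMLE shEcad cells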;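 also: 0% = median of negative and 100% = median of positive control wells; the first replicate is given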
PABP FP inh: PABP poly(A) RNA binding inhibitors, primary screen, biochemical, fluorescence polarization, uHTS; Polyadenylate-binding protein 1 (Homo sapiens), P11940; inhibition, % at 35 µM; 290,000 tested, 1% active; AID 2014, 2009;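 active = 50% or more with normal probe brightness, or confirmed in later tests; inconclusive = above 50% with abnormal brightness, or retests that disagree; inactive = below 50% or failed in later tests; about a fifth of its hits are not listed in these tables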;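 also: calls also rest on retests at 20 µM and on dose response follow-up; controls were probe without protein and protein plus probe with vehicle; some compounds called inactive have numbers as strong as hits; many hits fall short of the cut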
Target sequence (P11940 whole entry, looked up): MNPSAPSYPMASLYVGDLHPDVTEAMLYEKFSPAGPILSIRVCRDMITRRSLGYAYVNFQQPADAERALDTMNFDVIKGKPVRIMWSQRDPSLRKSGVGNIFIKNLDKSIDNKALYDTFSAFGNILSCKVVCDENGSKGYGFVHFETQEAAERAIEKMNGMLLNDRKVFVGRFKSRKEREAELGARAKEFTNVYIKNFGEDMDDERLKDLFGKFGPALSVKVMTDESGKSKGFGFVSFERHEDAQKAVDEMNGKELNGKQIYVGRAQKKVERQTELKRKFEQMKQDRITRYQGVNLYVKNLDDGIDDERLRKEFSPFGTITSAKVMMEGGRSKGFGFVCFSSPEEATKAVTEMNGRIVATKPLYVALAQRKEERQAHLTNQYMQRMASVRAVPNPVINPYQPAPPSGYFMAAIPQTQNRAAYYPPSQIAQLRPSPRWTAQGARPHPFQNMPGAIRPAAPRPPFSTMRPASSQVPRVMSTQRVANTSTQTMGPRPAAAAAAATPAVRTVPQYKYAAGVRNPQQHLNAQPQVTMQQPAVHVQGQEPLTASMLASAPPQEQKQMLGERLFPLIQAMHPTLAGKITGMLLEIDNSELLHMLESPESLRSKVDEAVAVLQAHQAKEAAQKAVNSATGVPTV
Yeast UUG start: modulators of yeast start codon fidelity, primary screen, whole organism, S. cerevisiae, single point, plate reader | 350,000 tested, 0.13% active | activity score, % at 18.7 µM | S. cerevisiae UUG-firefly luciferase reporter, luminescence/redox ratio;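 active = replicate mean at a twofold rise or more, about +100% in these data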;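 also: firefly luciferase made from a UUG start codon reports start codon fidelity; reporter light over untreated wells divided by growth signal over untreated wells; some hits fall short of that in this replicate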
Rce1 inh: yeast Rce1p protease inhibitors, primary screen, biochemical, fluorescence, cell-free homogeneous. 290,000 tested, 0.27% active. yeast membranes, quenched prenylated peptide cleavage fluorescence. calls only;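 active = fall in fluorescence gain of 50% or more versus controls, with final raw signal at or below 3038400; inconclusive = same 50% fall but final raw signal above 3038400; inactive = fall in fluorescence gain under 50%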;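 also: plate controls were neutral control wells for no effect and wells lacking membranes for full effect; tested at 10 µM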
Target sequence (Q03530 whole entry, looked up): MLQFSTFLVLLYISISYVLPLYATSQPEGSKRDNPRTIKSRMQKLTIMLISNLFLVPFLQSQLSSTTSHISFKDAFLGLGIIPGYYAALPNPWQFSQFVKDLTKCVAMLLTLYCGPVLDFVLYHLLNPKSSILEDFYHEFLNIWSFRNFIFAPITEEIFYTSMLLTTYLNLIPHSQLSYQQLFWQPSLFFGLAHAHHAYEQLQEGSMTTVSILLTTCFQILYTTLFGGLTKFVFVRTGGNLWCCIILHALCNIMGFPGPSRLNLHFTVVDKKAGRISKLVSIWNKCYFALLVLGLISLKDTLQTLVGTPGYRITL
Env fusion inh: inhibitors of HIV-1 Env-driven cell-cell fusion, primary screen, HeLa-JRFL effector, CEM21 target cells, luciferase; inhibition, % at 12.3 µM; 360,000 tested, 1.1% active;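 active = mean replicate inhibition score of at least 50 and every replicate individually at or above 50; inconclusive = only one of the two criteria met; inactive = mean below 50 and not all replicates reaching 50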;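 also: 0% = plate neutral controls and 100% = maraviroc near 300 nM; one replicate is shown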
eIF4H FP inh retest: further read-out of eIF4H FP inh, marked with its call; inhibition, %; compound at 20 µM; confirmation average;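 mean of two retest wells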
PABP FP inh retest: recorded beside PABP FP inh, whose call it bears; inhibition, %; compound at 20 µM; confirmation repeats;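 mean of two retest wells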
MT1-MMP act inh RFP: recorded beside MT1-MMP act inh, whose call it bears; RFP signal change, %; measured here: RFP expression control read;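 0 = vehicle wells; hits needed this value within 50% of zero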
Active calls of the source: *; i = inactive; ? = inconclusive; . = not tested or not shown; & = joins results of further samples.

SMILES	MT1-MMP act inh	MT1-MMP act inh RFP	eIF4H FP inh	CSC inhib	PABP FP inh	Yeast UUG start	Rce1 inh	Env fusion inh	others
Cc1cc(NC(=O)C(C)SCC(=O)OCC(=O)Nc2c(C)cccc2C(C)C)no1 (stereo unspecified)	3	4	.	.	.	-19	.	4
O=C(N/N=C/c1ccccc1O)c1cc(=O)[nH]c2ccccc12	.	.	20	.	-2	.	i	.
COc1ccc(/C=C2/NC(=O)CNC2=O)cc1	1	-8	-4	-2	2	-15	i	3
Cc1cc(-c2ccc(S(=O)(=O)N3CCc4ccccc4C3)s2)on1	1	-4	-1	-1	2	-7	i	-52
CC1(C)C[C@@H]2C[C@@](C)(CN2C(=O)c2cc(COc3cccc(C(F)(F)F)c3)on2)C1	0	-17	-4	96*	-2	-13	i	?
CCCC/C(C)=N/NC(=O)CN(c1ccc(Br)cc1)S(=O)(=O)c1ccccc1	3	5	1	-6	7	-14	i	.
COc1ccc(Cc2nnc(NC(=O)c3ccc(OC)c(OC)c3)s2)cc1	2	-4	-3	-7	0	-23	i	0
CSc1nc(-c2ccccc2)nc(N2CCCC2)c1C(C)=O	-5	-6	2	-6	-6	-17	i	10
Cc1ccc(Cn2c(N)nc3ccccc32)cc1	2	-15	-8	-12	-5	-26	.	59*
N#Cc1ccc(Oc2c(Cl)cncc2Cl)cc1	-9	-7	-12	.	6	10	i	23
Cc1c(-n2c(CN3C(=O)c4ccccc4C3=O)nc3ccccc3c2=O)c(=O)n(-c2ccccc2)n1C	2	3	.	11	.	16	i	.
COC(=O)c1sccc1NC(=S)Nc1ccccc1	0	2	-6	4	54	.	i	-16	eIF4H FP inh retest=-12;PABP FP inh retest=7
Cc1ccc(Sc2nc(-c3ccccc3)nnc2C(F)(F)F)cc1	-9	-11	2	.	0	-24	i	-18
COc1ccc(S(=O)(=O)N2CCOCC2)cc1NC(=O)Cc1ccc(F)cc1	-1	-2	.	.	.	7	.	19
O=C(/C=C/c1cccc([N+](=O)[O-])c1)Nc1ccccn1	3	2	11	1	-7	-10	i	-12
O=C(c1cccc(N2C(=O)C3C4C=CC(C4)C3C2=O)c1)N1CCCc2ccccc21 (stereo unspecified)	1	-1	0	-11	-28	7	i	22
Cc1ccc(NC(=O)CSCC(=O)N2CCN(c3cccc(C(F)(F)F)c3)CC2)cc1	4	2	.	-4	.	-13	i	5
CC1(C(=O)NCc2ccco2)CCN1C(=O)C1(c2ccccc2)CC1 (stereo unspecified)	0	6	.	.	.	-12	.	-3
O=C(Nc1ccccc1Cl)Nn1cnnc1	0	3	-9	-4	-14	-30	i	2
CCOc1cc(C2C(C(=O)OC)=C(C)N=C3SC(C)C(=O)N32)ccc1OC(C)=O (stereo unspecified)	2	-3	10	-5	9	.	i	.
c1ccc(-n2ncc3c(NCc4cccs4)ncnc32)cc1	8	5	-5	9	-4	-11	i	-127
CCN(CC)c1ccc(C(=O)N/N=C/c2ccccc2OC(F)F)cc1	2	-1	4	0	-10	.	i	10
Cc1ccc(S(=O)(=O)Nc2c(NC3CCCCC3)c3ccccc3oc2=O)cc1	-7	1	12	-3	10	-2	i	0
CCn1c2ccccc2c2cc(NC(=O)COC(=O)c3ccc(O)cc3)ccc21	2	0	.	5	.	6	i	-86
Cc1ccc(CN2CCN(/N=C/c3cc(Br)cc(Br)c3O)CC2)cc1	0	-1	16	-14	-6	.	i	-21
More results.
SMILES	MT1-MMP act inh	MT1-MMP act inh RFP	eIF4H FP inh	CSC inhib	PABP FP inh	Yeast UUG start	Rce1 inh	Env fusion inh	others
CSc1ccc(NC(=O)C2(C)CCN2C(=O)C2(c3ccccc3)CC2)cc1 (stereo unspecified)	-1	-12	.	.	.	-6	.	4
O=C(/C=C/c1cccs1)N1CCC2(CC1)Oc1ccc(Cl)cc1C(=O)C21CC(c2ccc(Cl)cc2)=NO1 (stereo unspecified)	-2	1	.	-10	.	-13	i	17
O=C(Cc1ccccc1)NNC(=O)c1ccccc1C(=O)O	4	6	-8	2	0	-9	i	5
O=C(C1CC(=O)N(c2ccccc2)C1)N1CCN(C2=NS(=O)(=O)c3ccccc32)CC1 (stereo unspecified)	3	2	0	-12	1	.	i	.
O=C(Cc1cccs1)NCc1cc(Cl)cc(Cl)c1	0	0	-8	-11	15	-14	i	10
CC(=O)Nn1cc2c(=O)n(C)c(=O)n(C)c2c1	3	-1	-1	-8	-4	-15	i	.
N/C(=N\OC(=O)c1cccnc1)c1ccccc1Cl	-3	-2	7	-14	-2	.	i	-26
COCCCN1C(=O)C(O)=C(C(=O)c2ccco2)C1c1ccccc1 (stereo unspecified)	-2	4	7	-6	18	-16	i	.
C[C@@H]1CN([C@H](C)CO)C(=O)c2cc(Br)cnc2O[C@@H]1CN(C)C(=O)C1CCOCC1	0	2	.	.	.	-5&-7&2	.	8
Cc1ccc(C)c(NC(=O)CCc2nnc3ccc(N4CCCCC4)nn23)c1	1	5	-4	1	-2	-15	i	7
O=C(NC1CCCc2ccccc21)c1ccc(CNc2c(N3CCOCC3)c(=O)c2=O)cc1 (stereo unspecified)	2	-2	8	-8	2	-16	i	-24
COC(=O)c1ccc(OCCOCCOc2cccc3ccc(C)nc23)cc1	-6	-1	5	14	0	.	i	0
Cc1nn(Cc2ccccc2Cl)c(C)c1NC(=O)c1noc2c1CCCCC2	-4	-9	-7	-3	-3	.	i	17
N#Cc1ccccc1CSc1nc(O)cc(=O)[nH]1	-2	-2	2	1	-2	-15	i	.
S=C(c1ccc(-c2ccccc2Cl)o1)N1CCCCC1	1	-3	4	-3	8	.	i	-77
Cc1cc(C)c2[nH]c(=O)c(CN(Cc3ccco3)C(=S)NCC3CCCO3)cc2c1 (stereo unspecified)	-3	0	-6	3	16	.	i	13
CCc1cc(=O)oc2c3c(cc(OCC(=O)NCc4ccncc4)c12)OC(C)(C)CC3	2	0	-11	68	1	-1	.	.
COC(=O)c1ccccc1NC(=O)N1CCCC1	0	1	-6	-6	-9	-5	i	-37
COc1cc2c(c(OC)c1OC)-c1ccc(NC(=O)c3ccccc3)c(=O)cc1[C@@H](NC(C)=O)CC2	-2	-1	6	45	4	.	i	-36
O=C(NNC(=S)Nc1ccc(Cl)cc1)c1ccccc1	.	.	7	-6	9	-15	i	-36
CCOC(=O)C(Cc1ccccc1)NC(=O)CCc1c(C)nc2ncnn2c1C (stereo unspecified)	1	3	5	.	3	0	i	-8
COc1ccc2cc(N3CCCC3=O)ccc2c1	3	-1	.	.	.	-25	.	-54
CC1CC2(CCCCC2)Nc2c1ccc1ccccc21 (stereo unspecified)	-29	-1	10	-13	4	-13	i	.
CCCCN(C=O)c1c(CC)nc2c(OCc3cccc(Cl)c3)cccn12	3	-14	.	.	.	2	.	14
CSCCC(NS(=O)(=O)c1cccc(C(F)(F)F)c1)C(=O)N1CCN(C(=O)c2ccco2)CC1 (stereo unspecified)	2	2	.	.	.	-35	.	9
Next compounds.
SMILES	MT1-MMP act inh	MT1-MMP act inh RFP	eIF4H FP inh	CSC inhib	PABP FP inh	Yeast UUG start	Rce1 inh	Env fusion inh	others
CC1(C(=O)NCCc2ccccc2)Cc2c(-c3ccc(C(N)=O)cc3)ccnc2O1 (stereo unspecified)	0	-1	.	.	.	-13	.	9
Nc1nonc1C(=Nc1ccc(Br)cc1)NO	-5	-6	2	-15	-3	-13	i	6
CCCc1cnc(N2CCN(S(=O)(=O)c3cccs3)CC2)nc1	2	2	-6	-3	5	-10	i	15
CCOC(=O)c1cnc2nc(N3CCOCC3)nn2c1N	-1	4	-8	6	-13	.	i	2
CCOC(=O)c1cc2nc(-c3ccccc3)cc(C)n2n1	0	1	-12	-2	8	-7	i	-35
Cc1ccc2nc(N3CCN(Cc4nnnn4C4CCCC4)CC3)c(C#N)cc2c1	-1	-6	7	.	-2	-4	i	29
COc1ccccc1-c1noc(CCCC(=O)N2CCOCC2)n1	0	3	-3	-6	-9	-28	i	-5
COc1ccc(NC(=O)C/C(C)=N/NC(=O)C2CCCCC2)c([N+](=O)[O-])c1	5	-1	-9	-13	-2	-10	.	10
Cc1ccc(S(=O)(=O)c2nc(-c3ccco3)oc2SC(C)C)cc1	-5	0	-16	2	-10	20	.	6
CCOC(=O)C(=CNc1ccc2c(c1)nnn2-c1ccc(Cl)cc1)C(=O)OCC	6	3	6	.	4	-13	i	6
COC(=S)N/C(=N\S(=O)(=O)c1ccc(Cl)cc1)c1ccccc1	0	5	-8	-6	-4	-10	i	-4
CCN(CC(=O)NCc1cccnc1)S(=O)(=O)c1ccc(OC)cc1	0	4	-9	-9	3	-11	i	-1
CCc1ccc(N2CC(C(=O)OCC(=O)c3c(N)n(CC(C)C)c(=O)n(C)c3=O)CC2=O)cc1 (stereo unspecified)	2	-3	.	0	.	.	i	11
Cc1cccc(NC(=O)CSc2ncnc3nc[nH]c23)c1C	-1	0	9	-2	20	-14	i	.
Cc1cc(C(=O)COC(=O)CCc2nc3ccccc3c(=O)[nH]2)c(C)n1CC1CCCO1 (stereo unspecified)	.	.	21	4	8	.	i	.
CCN1C(=O)[C@H]2[C@@H](c3ccc(Cl)cc3)N3C(=O)CN(CC4CC4)C(=O)[C@@]3(Cc3ccccc3)[C@H]2C1=O	0	3	-4	-7	5	-9	i	-14
Cc1cc(C(=O)Nc2ccc3nc(C)sc3c2)c2ccccc2n1	-1	-3	-8	1	-4	-13	i	1
Cc1[nH]c(C)c(S(=O)(=O)Nc2ccccc2Cl)c1C(=O)N1CCCC1	1	5	16	4	14	-14	i	6
CN(C)c1ccc(N=Cc2nc(-c3ccccc3)oc2O)cc1	-84	-1	?	12	?	.	i	.
CC(C)c1nnc(NC(=O)CC23CC4CC(CC(C4)C2)C3)s1	1	-1	-5	-6	-5	-19	i	-29
CCC1C(c2ccccc2)N(C)C(c2ccccc2)CC1(O)c1ccccc1 (stereo unspecified)	-15	-13	-3	36	6	.	i	14
NNC(=O)CN1C(=O)Nc2ccc(Br)cc2C1c1ccccc1 (stereo unspecified)	1	0	13	-5	9	-15	i	.
Cc1ccc(-c2n[nH]c(=S)c3ccccc23)cc1	1	-3	-1	-8	-2	-12	i	-11
O=C(CSc1ccc(-c2ccc(Cl)cc2)nn1)NC1CCCC1	-1	-5	-4	-8	-1	-22	i	21
CCCc1nc(NCCO)c(C#N)c2c1CCCC2	-2	0	2	-13	-12	-11	i	6
CC(NC(=O)C12CC3CC(CC(C3)C1)C2)c1ccc(F)cc1 (stereo unspecified)	-2	-1	-5	-7	10	.	i	2
Cn1ccnc1C(=O)c1cccc(Br)c1	1	5	-2	3	1	-30	i	-16
